Rango dissoc inh: inhibitors of RanGTP-induced Rango-importin beta complex dissociation. hit rate 0.071% among 340,000. Biochemical FRET Rango-importin beta, RanGTP-induced dissociation. Potency, µM (series often up to 46.1 µM), inactives show top-dose activity change, negative = inhibition. AID 540253. O95149+P62826; active means falling FRET ratio curve, often poorly fitted, with flat reads before Ran was added; inconclusive means other falling curves, or compound fluorescence or quenching; inactive means flat or rising ratio curve;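 also: potency is read from the fitted curve at half-maximal effect; % of control where 0% means no effect; nearly all actives have a fitted effect of over 45% in size; -100% = wells without RanGTP and RCC1; the record marks most hits as doubtful in a second field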
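Two FRET readings bracket the reaction: one 5 min after compound meets Rango–importin beta, another 45 min after RanGTP-RCC1 (0.6 uM Ran, 0.2 uM RCC1, 2 mM GTP) is added. Only the second defines inhibition.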
GLA inh pH 4.5: blocks human alpha-galactosidase A at pH 4.5; purified enzyme, 4-MU-alpha-Gal fluorescence, pH 4.5; AID 1467; P06280; activity change, negative = inhibition, % at 105 µM; 230,000 tested, under 10 active; inconclusive = small, poorly fitted or top-dose-only inhibition, or a rising curve; inactive = flat fitted curve, though single readings scatter; no compound was filed as active;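 also: 0% = full activity with enzyme and -100% = basal without enzyme; dose as in the result columns while the protocol names 77 µM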
miR-21 FLuc: miR-21 reporter, rising signal; HeLa miR-21 FLuc reporter, luciferase, 48 h; Potency, µM (series often up to 38.3 µM), for inactives: at the highest dose reporter change, positive = more light; 340,000 tested, under 10 active; AID 2288; active = well fitted rising curve with a large enough effect; inconclusive = small, poorly fitted or top-dose-only effect; inactive = no such curve, though single readings can be large or run the other way;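 also: % of control where 0% means no effect; miR-21 action dims this reporter so a rising signal means less miR-21 action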
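HeLa cells stably expressing CMV-driven firefly luciferase with a downstream miR-21 binding sequence, endogenously expressing miR-21, were treated with titrations (up to about 40uM final) for 48 hours at 37 degree Celsius. Luciferase luminescence was read after lysis.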
Rango complex inh: prevents formation of the Rango-importin beta complex | Q14974 | Rango CFP/YFP FRET sensor + importin beta, 45 min | Potency, µM (titrated, usually from 92.2 µM), for inactives: top-dose inhibition of complex formation | hit rate 0.031% among 340,000; active = rising FRET ratio curve, often small or poorly fitted; inconclusive = mostly compound fluorescence or quenching in the first reads; inactive = flat curves in all reads;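 also: potency is read from the fitted curve at half-maximal effect; 0% = DMSO wells and 100% = buffer wells lacking importin beta; nearly all actives have a fitted effect of over 15% in size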
Target sequence (Q14974 whole entry, looked up): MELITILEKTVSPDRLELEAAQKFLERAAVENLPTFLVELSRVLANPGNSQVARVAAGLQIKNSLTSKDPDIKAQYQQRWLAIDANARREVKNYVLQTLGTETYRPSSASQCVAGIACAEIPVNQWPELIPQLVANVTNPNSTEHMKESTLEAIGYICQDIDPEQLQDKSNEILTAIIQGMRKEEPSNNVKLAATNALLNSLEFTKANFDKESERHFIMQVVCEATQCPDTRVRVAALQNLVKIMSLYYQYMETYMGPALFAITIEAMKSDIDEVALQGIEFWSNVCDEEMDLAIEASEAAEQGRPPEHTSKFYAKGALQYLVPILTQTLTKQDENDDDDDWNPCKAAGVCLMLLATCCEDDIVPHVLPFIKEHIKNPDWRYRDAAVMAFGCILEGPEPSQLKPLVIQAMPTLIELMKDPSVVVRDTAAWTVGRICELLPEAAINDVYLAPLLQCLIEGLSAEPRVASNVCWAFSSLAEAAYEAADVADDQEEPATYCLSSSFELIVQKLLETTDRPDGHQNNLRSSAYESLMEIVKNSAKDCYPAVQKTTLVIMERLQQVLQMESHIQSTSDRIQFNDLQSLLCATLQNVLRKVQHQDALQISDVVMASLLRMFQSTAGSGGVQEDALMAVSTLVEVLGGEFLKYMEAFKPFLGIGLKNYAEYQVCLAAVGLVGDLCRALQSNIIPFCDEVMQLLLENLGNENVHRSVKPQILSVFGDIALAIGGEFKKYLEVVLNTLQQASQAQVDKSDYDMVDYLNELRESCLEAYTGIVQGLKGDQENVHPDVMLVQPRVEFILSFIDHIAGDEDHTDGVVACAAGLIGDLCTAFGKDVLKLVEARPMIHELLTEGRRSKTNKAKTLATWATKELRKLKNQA
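FRET biosensor (snurportin 1 IBB flanked by EYFP and cerulean), 50 nM, with compound 5 min, then 0.125 microM importin beta in PBS, 1 mM DTT, 0.02% Tween-20, 0.1% BSA. CFP/YFP ratio read after 45 min at room temperature; pre-read flags interference.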
* = called active by the depositor; ? = inconclusive; nt = not tested or not shown; [ ] = another dose, or the depositor's remark. An excerpt. The share of hits here may be higher or lower than overall.

(1) COc1cc(CNS(=O)(=O)c2ccc3c(c2)CC(C)N3C(C)=O)cc(OC)c1OC (stereo not given)
(2) CCCC1CC(C(=O)NC(C(C)Cl)C2OC(SC)C(O)C(O)C2O)N(C)C1 (stereo not given)
(3) O=[N+]([O-])c1ccc(N2CCN(S(=O)(=O)c3ccccc3)CC2)cc1N1CCc2ccccc2C1
(4) Cn1c(=O)c2c(nc(N3CCN(c4ccc([N+](=O)[O-])cc4)CC3)n2C)n(C)c1=O
(5) CCC(=O)Nc1cccc(NC(=S)NC(=O)c2ccccc2)c1
(6) O=C(O)c1ccc(OCCCCCCOC2CCCCO2)cc1 (stereo not given)
(7) CC1CCCN(C(=O)CCc2nnc(-c3ccc4c(c3)OCO4)o2)C1 (stereo not given)
(8) Cc1ccc(NC(=O)CN(C)C(=O)COC(=O)[C@@H](NC(=O)c2ccccc2F)C(C)C)cc1

screen / no. | 1 | 2 | 3 | 4 | 5 | 6 | 7 | 8
Rango dissoc inh | -10% | -8% | 14% | -1% | -19% | -10% | -16% | -2%
GLA inh pH 4.5 | nt | nt | -6 | -12 | 1 | nt | nt | nt
miR-21 FLuc | 7% | 1% | 2% | 1% | -28% | -11% | -47% | nt
Rango complex inh | -1.6% | -3.5% | 0.8% | -0.4% | -0.7% | 3.1% | -1.9% | 5.3%

The last 2 compounds of the section above open the next one.
(7) CC1CCCN(C(=O)CCc2nnc(-c3ccc4c(c3)OCO4)o2)C1 (stereo not given)
(8) Cc1ccc(NC(=O)CN(C)C(=O)COC(=O)[C@@H](NC(=O)c2ccccc2F)C(C)C)cc1
(9) CCOc1ccc(N/C(C)=C/C(=O)c2ccc(C)o2)cc1
(10) Cc1cccnc1NC(=O)CNC(=O)c1sc2ccccc2c1Cl
(11) CCCCCCC(=O)N1C/C=C\C(c2ccc(OC)cc2)N(Cc2ccc(F)cc2)C(=O)C1 (stereo not given)
(12) CN(C)c1nc(NCc2ccccc2)nc(SCC(N)=O)n1
(13) Cc1ccc(NC(=O)c2ccc(Cl)c(S(=O)(=O)N3CCc4ccccc43)c2)nc1
(14) C=CCNc1oc(-c2cccs2)nc1S(=O)(=O)c1ccccc1
(15) COc1ccc(-c2csc(NC(=O)c3ccc(OCC(=O)N4CCOCC4)c(OC)c3)n2)cc1
(16) CC12CCC(=O)N1C(C(=O)N1CCN(c3ccc([N+](=O)[O-])cc3)CC1)CS2 (stereo not given)

screen / no. | 7 | 8 | 9 | 10 | 11 | 12 | 13 | 14 | 15 | 16
Rango dissoc inh | -16% | -2% | 2% | -5% | -6% | 23% | 11% | -3% | 1% | 0%
GLA inh pH 4.5 | nt | nt | -7 | nt | -16 | nt | nt | 5 | -15 | nt
miR-21 FLuc | -47% | nt | -9% | nt | 17% | -5% | nt | 1% | 12% | nt
Rango complex inh | -1.9% | 5.3% | -1.2% | -2.8% | 1.4% | 1.8% | -0.9% | 5.8% | ? | -0.2%

Reprinted at random: four compounds from above, in no set order.
(3) O=[N+]([O-])c1ccc(N2CCN(S(=O)(=O)c3ccccc3)CC2)cc1N1CCc2ccccc2C1
(11) CCCCCCC(=O)N1C/C=C\C(c2ccc(OC)cc2)N(Cc2ccc(F)cc2)C(=O)C1 (stereo not given)
(5) CCC(=O)Nc1cccc(NC(=S)NC(=O)c2ccccc2)c1
(1) COc1cc(CNS(=O)(=O)c2ccc3c(c2)CC(C)N3C(C)=O)cc(OC)c1OC (stereo not given)

screen / no. | 3 | 11 | 5 | 1
Rango dissoc inh | 14% | -6% | -19% | -10%
GLA inh pH 4.5 | -6 | -16 | 1 | nt
miR-21 FLuc | 2% | 17% | -28% | 7%
Rango complex inh | 0.8% | 1.4% | -0.7% | -1.6%

Later entries.
(17) COc1ccc(CCn2c(C)cc(C(=O)CCl)c2C)cc1OC
(18) C/C(Cc1ccccc1)=N\NC(=O)CNC(=O)c1ccccc1Cl
(19) COC(=O)[C@@H]1C(c2c(OC)cc(OC)cc2OC)=NO[C@H]1C(=O)OC
(20) Cc1cc(C=O)c(C)n1-c1ccc(N2CCOCC2)c([N+](=O)[O-])c1
(21) COc1ccc(CCCNC(=O)CC#N)cc1OC
(22) COc1cc(/C=C/C(=O)O)cc(S(=O)(=O)NNC(=O)c2ccc3c(c2)OCO3)c1OC
(23) Cc1ccc(S(=O)(=O)N2CCCCC2)cc1NC(=O)Cc1c[nH]c2ccccc12
(24) COc1ccc(C(=O)COC(=O)c2ccc(Cl)nc2)cc1OC

screen / no. | 17 | 18 | 19 | 20 | 21 | 22 | 23 | 24
Rango dissoc inh | -1% | -20% | -12% | -10% | 1% | -4% | -1% | 12%
GLA inh pH 4.5 | 15 | -3 | 7 | -4 | -4 | nt | -1 | nt
miR-21 FLuc | 20% | -4% | -12% | 1% | 0% | nt | 8% | nt
Rango complex inh | -0.5% | -1.2% | -2.6% | -0.4% | -3.8% | -1.3% | -1.4% | 0.8%

(25) O=C(/C=C/c1cccc(F)c1)OCC(=O)N1CCc2ccccc21
(26) CCCc1cc(=O)c2ccc(OCC(C)=O)cc2o1
(27) COc1cc(/C=N/NC(=O)c2cc(C)oc2C)ccc1OCc1ccccc1
(28) CCOCC(=O)Nc1c(C(=O)N2CCN(c3ncccn3)CC2)oc2ccccc12
(29) C=CCn1c(N)c(C(=O)N2CCOCC2)sc1=S
(30) CC1=C(C(=O)N2CCOCC2)C(c2ccccc2F)NC(=O)N1 (stereo not given)
(31) COc1ccccc1N1CCN(Cc2cc(=O)c(OCC(=O)Nc3ccccc3)co2)CC1
(32) COc1ccccc1CCc1nnc(CCC(=O)N(C)Cc2ccncc2C)o1

screen / no. | 25 | 26 | 27 | 28 | 29 | 30 | 31 | 32
Rango dissoc inh | 15% | -6% | -8% | -6% | -14% | -7% | 4% | 0%
GLA inh pH 4.5 | nt | 6 | nt | nt | 3 | -9 | nt | -8
miR-21 FLuc | nt | -6% | -22% | -8% | -7% | 2% | nt | 0%
Rango complex inh | -1.7% | 0.9% | -5.9% | 2.4% | -5.4% | -0.1% | 0.0% | -0.3%

(33) O=c1[nH]c2ccc(NS(=O)(=O)c3ccc(F)c(Cl)c3)cc2[nH]1
(34) CC(C)C(NC(=O)c1ccc(C(C)(C)C)cc1)C(=O)O (stereo not given)
(35) CN(CC(=O)Nc1ccc(Cl)cc1)S(=O)(=O)c1cccc2cccnc12
(36) Cc1nnc(SCC(=O)NC2CCCc3ccccc32)n1-c1ccccc1 (stereo not given)
(37) COC(=O)c1c(NC(=O)C(C)(C)C)csc1C
(38) O=C(NC1CCCCC1)C1(S(=O)(=O)c2ccc(Cl)cc2)CC1
(39) CC(C)CNS(=O)(=O)c1ccc(CCC(=O)N2CCN(c3ccccc3)CC2)cc1
(40) Cc1ccc(S(=O)(=O)N2[C@@H](c3ccc(Cl)cc3)C(C(=O)O)=CC[C@H]2c2cccc(Cl)c2)cc1

screen / no. | 33 | 34 | 35 | 36 | 37 | 38 | 39 | 40
Rango dissoc inh | -19% | -3% | 9% | -4% | 2% | 3% | 12% | -4%
GLA inh pH 4.5 | nt | 6 | -4 | 1 | 2 | nt | -7 | nt
miR-21 FLuc | 13% | -21% | 15% | -5% | 0% | -2% | 21% | nt
Rango complex inh | ? | 6.3% | -0.6% | -0.6% | 7.1% | 1.1% | 0.6% | 0.3%

(41) COc1ccc(NS(=O)(=O)c2cc(NC(=O)c3nn(C)c(=O)c4ccccc34)ccc2OC)cc1
(42) CC(=O)c1ccc(N2CCN(C(=O)Cc3ccccc3)CC2)c(F)c1
(43) CC(C)(C)NC(=O)CN(Cc1ccc(F)cc1)C(=O)Cn1nnc(-c2ccc(F)cc2)n1
(44) CCN(CC(=O)NCc1cccs1)C(=O)COc1ccccc1C#N
(45) COc1cccc(OC)c1C(=O)Nc1cccc(-c2nc3ccccc3[nH]2)c1
(46) COCCNC(=O)C(c1ccc(F)cc1)N(CCOC)C(=O)CCC(=O)Nc1nccs1 (stereo not given)
(47) CCOc1ccc(NC(=O)NC2CCOC(C)(C)C2)cc1 (stereo not given)
(48) CCc1ccc(N(C(=O)c2snc(C(N)=O)c2N)C(C(=O)NCCC(C)C)c2c[nH]c3ccccc23)cc1 (stereo not given)

screen / no. | 41 | 42 | 43 | 44 | 45 | 46 | 47 | 48
Rango dissoc inh | -3% | -4% | -1% | -3% | -9% | 10% | 3% | -9%
GLA inh pH 4.5 | 4 | nt | 2 | nt | 6 | -4 | 2 | -2
miR-21 FLuc | 2% | 2% | -2% | nt | 15% | -3% | -14% | -4%
Rango complex inh | -4.5% | -2.0% | -3.2% | 3.6% | -0.1% | 0.0% | -1.4% | 0.0%

(49) O=C(CSc1nc2ccc(Cl)cc2[nH]1)NC1CCCC1
(50) O=C(CSc1nc2c(c(=O)n1-c1ccc(Cl)cc1)SCC2)N1CCCC1
(51) Cn1c(CN2CCN(C(=O)c3ccccc3Cl)CC2)nc2cc([N+](=O)[O-])ccc21
(52) Cc1ccc(NC(=O)CCN2CCC(Cc3ccccc3)CC2)cc1
(53) COc1ccc(CCNC(=O)c2cc(-c3ccccc3OC)on2)cc1OC
(54) CN(c1ccccc1C(=O)NC1CC2CCC1C2)S(=O)(=O)c1ccccc1 (stereo not given)
(55) CC1=C/C(=N\NC(=S)NCc2ccccc2)CC1
(56) Nc1c(C(=O)OCC(=O)Nc2ccccc2Br)[nH]c(=O)[nH]c1=O

screen / no. | 49 | 50 | 51 | 52 | 53 | 54 | 55 | 56
Rango dissoc inh | 4% | 0% | 26% | -9% | -14% | 23% | -2% | -13%
GLA inh pH 4.5 | nt | -3 | 1 | nt | -2 | -5 | -1 | nt
miR-21 FLuc | -1% | -2% | 3% | -6% | 7% | 3% | -25% | nt
Rango complex inh | 0.4% | 0.4% | ? | 3.6% | -5.4% | -2.5% | 0.2% | -0.1%

(57) COc1ccc(-c2ccc(C#N)c(SCC(=O)Nc3sc4c(c3C#N)CCC4)n2)cc1OC
(58) COc1c(Br)cc(Br)cc1C(=O)O
(59) Cc1ccc(NC(=O)c2cc(-c3ccco3)nc3ccccc23)cc1S(=O)(=O)N1CCOCC1
(60) COc1ccc(NC(=O)c2cc(-c3ccccc3)nc3c2cnn3C(C)C)c(OC)c1
(61) S=C(NCc1ccco1)Nc1cccc(Cl)c1Cl
(62) C/C(=C\C(=O)O)CC(=O)O
(63) COc1ccc(OC)c(NC(=O)Cn2c(=O)oc3ccccc32)c1
(64) COc1ccc2cc(C(c3nnnn3C3CCCC3)N3CCc4ccccc4C3)c(=O)[nH]c2c1 (stereo not given)

screen / no. | 57 | 58 | 59 | 60 | 61 | 62 | 63 | 64
Rango dissoc inh | ? | -11% | -6% | 7% | 8% | 17% | -7% | ?
GLA inh pH 4.5 | 4 | 3 | -15 | nt | 1 | 6 | 3 | -4
miR-21 FLuc | -8% | 2% | 14% | nt | -6% | -3% | 6% | -38%
Rango complex inh | ? | -0.5% | 1.6% | -3.4% | -0.2% | 6.7% | 3.1% | ?

(65) COC(=O)c1ccc(C2C(C(=O)Nc3ccc(C)cc3C)=C(C)Nc3ncnn32)cc1 (stereo not given)
(66) Cc1ccc(S(=O)(=O)N(C)C[C@@H]2Oc3ccc(NC(=O)CCC(F)(F)F)cc3CC(=O)N([C@@H](C)CO)C[C@@H]2C)cc1
(67) Cc1cc(N2CCN(C)CC2)nc2ccc(NC(=S)N3CCOCC3)cc12
(68) CS(=O)(=O)N1CCC(C(=O)Nc2ccccc2Cl)CC1
(69) CN(C)CCn1c2c(c(SCC(=O)Nc3ccc4c(c3)OCCO4)nc1=O)CCC2
(70) Cc1nn(-c2ccccc2)c(N2CCCC2)c1/C=C1\N=C(c2ccc(OC(C)C)cc2)OC1=O
(71) CSCCC(NC(=O)COc1ccccc1)C(=O)N1CC(C)OC(C)C1 (stereo not given)
(72) O=C(Nc1ncccn1)c1cccc(F)c1

screen / no. | 65 | 66 | 67 | 68 | 69 | 70 | 71 | 72
Rango dissoc inh | 0% | 4% | 14% | 10% | 15% | ? | -9% | -15%
GLA inh pH 4.5 | 3 | nt | 6[21.1 µM] | nt | nt | 4 | nt | nt
miR-21 FLuc | -9% | nt | -20% | 0% | nt | -2% | nt | -11%
Rango complex inh | 1.4% | -0.4% | -0.4% | 0.0% | -2.3% | ? | ? | -4.1%

Screening results as filed in PubChem.
